Menin MLL FP FL: qHTS Assay for Inhibitors Targeting the Menin-MLL Interaction in MLL Related Leukemias: Competition With Fluorescein Labeled MLL-derived Peptide; Fluorescence polarization, fluorescein-MLL peptide displacement from menin; FP activity change, % at 61.4 µM; 290,000 tested, under 10 active; inconclusive = falling polarisation curve, or a change in total fluorescence; inactive = total fluorescence flat and polarisation flat or rising; no compound was filed as active; the % refers to the polarisation; negative = inhibition;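 further: % of control where 0% means no effect; inhibitors lower the polarisation; unlabelled MLL peptide was the positive control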
gsp agonist: qHTS for Agonist of gsp, the Etiologic Mutation Responsible for Fibrous Dysplasia/McCune-Albright Syndrome: qHTS; AID 624287, 2012; Potency, µM (doses to about 76.9 µM), for the others: at the highest dose activation (cAMP increase), most hits filed as activators; actives 0.13% (n = 340,000); gsp mutant cells, cAMP HTRF, 30 min; control for the full effect not named in the record; active = well fitted activation curve with a large enough effect; inconclusive = small, poorly fitted or top-dose-only effect, or another doubt; inactive = no such curve, though single readings can be large or run the other way; cell line not stated here;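 further: phosphodiesterase inhibitor Ro 20-1724 added with compounds to block cAMP breakdown; potency means the concentration at half of the fitted maximal effect; nearly all actives have a fitted effect of over 60% in size; about a fifth of the inactives were tested at one dose only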
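Cells in DMEM/10% FBS with G418 were pretreated with compounds in DMSO plus […] (300 uM stock) for 30 min at 37C. cAMP was measured by HTRF (cAMP-d2 plus anti-cAMP antibody-K) after 30 min at room temperature.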
gsp antag: qHTS for Antagonists of gsp, the Etiologic Mutation Responsible for Fibrous Dysplasia/McCune-Albright Syndrome: qHTS. Potency, µM (highest dose often 76.9 µM), without a hit: at the highest dose activity change, negative = inhibition, usual class: inhibitors. gsp-mutant cells, cAMP HTRF, 30 min; control for the full effect not named in the record. actives 0.4% (n = 340,000); active = falling curve of any shape with a large fitted effect; inconclusive = falling curve, mostly with a smaller effect; inactive = flat or rising curve; cell line not stated here;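 further: intracellular cAMP measured with PDE inhibitor Ro 20-1724 present during compound exposure; potency means the concentration at half of the fitted maximal effect; on the % scale 0 is the no-effect control and ±100 the full control effect; nearly all actives have a fitted effect of over 65% in size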
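HTRF cAMP read-out (cAMP-d2 plus anti-cAMP antibody-K in lysis buffer, 30 min RT). Before lysis, cells are exposed to compounds with […] for 30 min at 37C in DPBS containing Ca/Mg, BSA and Tween 20.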
CtBP-E1A blk: qHTS Assay for Inhibitors of the CtBP/E1A Interaction | CtBP / adenovirus E1A interaction (AlphaScreen) | AlphaScreen GST-E1A/His-CtBP binding, 1536-well; active compounds read low; control for the full effect not named in the record | activity change, % (no concentration beside the values) | actives 0.49% (n = 340,000) | AID 651724, 2012; in the data active means activity change below about -65%; inconclusive means about -30% to -65%; inactive means above about -30%; further: on the % scale 0 is the no-effect control and ±100 the full control effect
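GST-E1A and His-tagged CtBP (125 nM each as 5X stock) were preincubated with pin-transferred compound for 2 h at 37 °C in the dark, then glutathione donor and nickel acceptor beads were added for 1 h before AlphaScreen reading.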
TRPV1 PAM: HTS Assay for Compounds that Act as Potentiators of the Vanilloid Receptor 1; Transient receptor potential cation channel subfamily V member 1 (Homo sapiens), Q8NER1; TRPV1-expressing cells, Fluo-8 calcium influx, capsaicin EC20 potentiation; host cell line not named in the record; control for the full effect not named in the record; potentiation, % at 8.33 µM; actives 0.02% (n = 320,000); AID 540277, 2011; active means potentiation above 80%; inconclusive means 30% to 80%; inactive means below 30%; further: 0% is about no effect
Target sequence (Q8NER1 whole entry, looked up): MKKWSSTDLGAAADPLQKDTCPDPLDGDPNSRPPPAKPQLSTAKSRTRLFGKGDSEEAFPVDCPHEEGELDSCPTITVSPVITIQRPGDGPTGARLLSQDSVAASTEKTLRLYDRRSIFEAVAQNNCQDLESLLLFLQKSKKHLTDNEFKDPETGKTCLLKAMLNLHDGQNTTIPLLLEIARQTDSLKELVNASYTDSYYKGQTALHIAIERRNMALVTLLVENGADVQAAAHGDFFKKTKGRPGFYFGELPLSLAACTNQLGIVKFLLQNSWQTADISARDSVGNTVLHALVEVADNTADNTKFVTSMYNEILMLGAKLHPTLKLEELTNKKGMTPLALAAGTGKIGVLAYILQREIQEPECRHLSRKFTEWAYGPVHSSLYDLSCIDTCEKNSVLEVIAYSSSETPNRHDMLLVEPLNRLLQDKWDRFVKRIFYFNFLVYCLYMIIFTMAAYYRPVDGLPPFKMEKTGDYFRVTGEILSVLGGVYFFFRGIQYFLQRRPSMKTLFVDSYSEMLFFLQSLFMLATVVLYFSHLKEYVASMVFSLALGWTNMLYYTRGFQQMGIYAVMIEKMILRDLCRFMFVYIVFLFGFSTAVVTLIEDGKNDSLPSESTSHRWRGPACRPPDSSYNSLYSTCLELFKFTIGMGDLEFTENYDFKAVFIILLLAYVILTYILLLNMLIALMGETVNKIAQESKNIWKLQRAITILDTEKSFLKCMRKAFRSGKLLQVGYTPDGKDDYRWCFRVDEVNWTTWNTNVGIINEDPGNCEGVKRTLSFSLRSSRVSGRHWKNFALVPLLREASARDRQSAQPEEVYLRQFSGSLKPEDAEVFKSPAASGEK
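Cells expressing TRPV1 were dye-loaded with Fluo-8 and read kinetically: 10 s baseline, 3 min after compound (agonist portion), then 2 min after EC20 capsaicin (allosteric enhancer portion). Calcium-bound dye fluorescence at 480/520 nm.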
Sfp inh: qHTS Assay for Inhibitors of Bacillus subtilis Sfp phosphopantetheinyl transferase (PPTase); 4'-phosphopantetheinyl transferase ffp (Bacillus subtilis), Q9F4F7; Biochemical Sfp PPTase activity, qHTS; Potency, µM, for inactives: max response, negative = inhibition, actives largely listed as inhibitors; actives 3.5% (n = 310,000); AID 1490, 2009; active means well fitted inhibition curve with a large enough effect; inconclusive means small, poorly fitted or top-dose-only effect, or another doubt; inactive means no such curve, though single readings can be large or run the other way;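 further: the enzyme is Sfp with the accession as filed and its product quenches rhodamine fluorescence; potency means the concentration at half of the fitted maximal effect; 0% = enzyme reaction without inhibitor and -100% = no enzyme wells; top concentration of the series not given in the record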
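Buffer: 50 mM Hepes-Na pH 7.6, 10 mM MgCl2, 0.01% Nonidet P-40, 0.01% BSA. Enzyme 15 nM, pre-exposed to compound 15 min; substrates then added and fluorescence change tracked over 30 min.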
ClpP mod: qHTS Assay for Activators of ClpP; Potency, µM (series often up to 57.5 µM), for the others: at the highest dose activity change, negative = active; ATP-dependent Clp protease proteolytic subunit (Bacillus subtilis (strain 168)), P80244; actives 1.9% (n = 340,000); AID 651965, 2013; purified B. subtilis ClpP, FRET peptide cleavage, 20 min; active = well fitted falling curve with a large enough effect; inconclusive = small, poorly fitted or top-dose-only effect; inactive = no such curve, though single readings can be large or run the other way; further: potency means the concentration at half of the fitted maximal effect; the source files actives as falling curves though it sought activators and does not explain the sign; nearly all actives have a fitted effect of over 65% in size; many hits overshoot -100%
Target sequence (P80244 whole entry, looked up): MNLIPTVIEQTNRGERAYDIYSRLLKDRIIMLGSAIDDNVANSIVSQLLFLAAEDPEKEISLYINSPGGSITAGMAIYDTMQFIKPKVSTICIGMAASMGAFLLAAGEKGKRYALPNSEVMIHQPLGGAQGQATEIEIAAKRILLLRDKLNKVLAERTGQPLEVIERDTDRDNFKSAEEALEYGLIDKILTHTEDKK
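ClpP 10 microg/mL final, pH 8 Tris/KCl buffer with BSA, glycerol, Tween-20; compound pinned in; FRET-FV substrate; RT 20 min; Ex320/Em430; ΔFRET vs ADEP 5.8 microM, DMSO, no enzyme.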
The depositor's hits bear a star; ? = inconclusive; . = no result given; [ ] = dose if it differs, or a comment.

SMILES	gsp antag	CtBP-E1A blk	Sfp inh	ClpP mod	TRPV1 PAM	gsp agonist	Menin MLL FP FL
COc1cc(/C=C/C(=O)O)cc(S(=O)(=O)NCc2ccc3c(c2)OCO3)c1OC	9.1%	3.4	4.7%	.	-11.7	5.7%[15.4 µM]	-1.7
O=S(=O)(c1ccccc1)N1CCN(c2nc(-c3cccnc3)nc3ccccc23)CC1	-10.7%	-16.4	.	.	-6.2	3.5%[15.4 µM]	.
CCCCc1cc(=O)oc2cc(OC(C)C(=O)NCC3CCC(C(=O)O)CC3)c(Cl)cc12 (centres undefined)	-17.7%	23.9	1.7%	4.7%	-4.3	.	-11.1
CCc1ccccc1NC(=S)N(Cc1ccc(OC)cc1)CC1CCC(C(=O)O)CC1 (centres undefined)	-1.2%	0.0	0.8%	.	7.4	-1.8%	1.9
Cc1ccc(Cl)cc1NCN1C(=O)c2ccccc2C1=O	.	3.2	.	3.0%	.	-0.6%	.
Cc1[nH]n(-c2nc(-c3ccccc3F)cc(=O)[nH]2)c(=O)c1CCO	-9.5%	-21.5	9.8%	.	6.9	-50.8%[inhibitor]	-0.1
O=C(C1CCCN(S(=O)(=O)c2cccc3nsnc23)C1)N1CCc2ccccc2C1 (centres undefined)	-23.4%	-3.4	12.3%	-1.3%	-1.0	-2.7%[15.4 µM]	5.0
CCCOC(=O)Nc1c(C)cccc1C(C)C	3.1%	10.6	-19.6%	-1.1%	-19.6	-57.0%[inhibitor]	5.9
Nc1ccccc1-c1nc2ccncc2[nH]1	.	-4.0	.	3.7%	.	11.8%	.
COC(=O)c1ccc(NC(=O)CNCc2ccncc2)cc1	9.9%	1.4	?	-0.8%	7.8	-27.2%	6.7

Following part.
SMILES	gsp antag	CtBP-E1A blk	Sfp inh	ClpP mod	TRPV1 PAM	gsp agonist	Menin MLL FP FL
O=C(Nc1ccc(Cl)cc1)N1CCOC12CCC1(CC2)OCCO1	18.3%	-10.3	21.7%	.	-20.9	-6.1%[15.4 µM]	-1.0
Nc1nc(N)c(N=Nc2ccccc2)c(=O)[nH]1	-19.2%	-20.2	.	.	.	-28.7%	.
COc1cccc(C(=O)Nc2cccc(NC(C)=O)c2)c1	-8.3%	-0.3	12.1%	-1.5%	-23.8	-2.0%	3.6
O=C(NCC1CCCO1)[C@@H]1CSC2c3ccccc3C(=O)N21 (some centres undefined)	6.6%	5.7	?	-0.3%	-9.6	-31.2%	9.0
CC(C)n1cnc2cc(NCc3ccccc3O)ccc21	-3.2%	-3.8	-1.7%	.	-10.1	0.0%[15.4 µM]	12.5
COc1ccccc1C#CC1=CC(=O)C[C@H](c2ccc(F)cc2)C1	.	-9.9	.	-5.2%	.	-29.7%	.
OC(CN1CCOCC1)c1ccc(F)cc1 (centres undefined)	-8.0%	.	-12.7%	-0.9%	0.8	3.5%	-4.2
Cc1ccc(NC(=O)COC(=O)c2ccc(=O)n(Cc3ccccc3)n2)cc1F	-7.5%	3.5	.	0.4%	1.4	-5.2%	.
CCNC(=O)NC(=O)C(C)OC(=O)c1cccnc1SC (centres undefined)	10.4%	-1.5	.	-1.4%	.	12.5%	.
Cc1ccccc1NCC(=O)N=Nc1c(O)[nH]c2ccc([N+](=O)[O-])cc12	-28.3%	2.3	6.2%	-0.3%	3.2	-32.3%[inhibitor]	0.4

Going on with the list:
SMILES	gsp antag	CtBP-E1A blk	Sfp inh	ClpP mod	TRPV1 PAM	gsp agonist	Menin MLL FP FL
Cc1ccc(C)c(S(=O)(=O)NCCCn2ccnc2)c1	17.3%	6.6	-7.0%	0.4%	-1.4	1.6%[15.4 µM]	0.5
CNS(=O)(=O)c1cccc(C(=O)OCC(=O)Nc2ccc3ccccc3c2)c1	2.2%	3.7	.	.	.	-21.2%	.
CC(=O)c1cccc(NC(=O)Nc2cnn(Cc3ccc(Cl)cc3Cl)c2)c1	?	-3.0	-21.0%	1.9%	-9.9	-16.6%	1.8
CSc1nnc(-c2nnc(SC)n2-c2ccccc2)n1-c1ccccc1	0.0%	1.5	6.6%	1.3%	-7.0	-26.7%	-2.5
Cc1cc(C)c(NC(=O)CSc2nc3ccccc3c(=O)n2CCCN2CCOCC2)c(C)c1	-11.8%	-11.4	.	-5.7%	1.5	13.7%	.
CN1CCN(C(=O)c2ccc(Oc3ccc([N+](=O)[O-])cc3)cc2)CC1	-37.1%	15.9	-14.7%	.	-5.9	7.8%[15.4 µM]	-2.0
Cc1ccc(O)c(NC(=O)CN(C)S(=O)(=O)c2ccc(Cl)cc2)c1	19.5%	-0.2	24.4%	-0.9%	-6.4	-48.4%[inhibitor]	0.3
CC12CCC(=O)N1C(C(=O)Nc1nc3ccccc3s1)CS2 (centres undefined)	-1.0%	.	.	0.8%	7.3	13.4%	.
Cc1ccccc1NC(=O)Cc1nnc(SCC(=O)NC2CCCCC2)n1C	4.8%	3.7	12.1%	.	12.8	6.4%	-1.2
COc1ccccc1N1CCN(C(=O)c2cc(-c3ccc(C)cc3)on2)CC1	-11.0%	-1.5	9.3%	-0.2%	22.0	8.0%	-0.3

Continuation.
SMILES	gsp antag	CtBP-E1A blk	Sfp inh	ClpP mod	TRPV1 PAM	gsp agonist	Menin MLL FP FL
COc1ccc(CNC(=O)c2cc(-n3cnnc3)ccc2Cl)cc1	13.6%	15.9	13.3%	-12.7%	-9.1	16.4%	1.0
CCOC(=O)c1oc2ccc(CNC3CCCCC3)c(Cl)c2c1C	3.2%	-6.7	0.0%	-5.3%	29.2	11.5%	-0.5
Cc1ccc(S(=O)(=O)N(C)C)cc1NC(=O)COC(=O)/C=C/c1ccc2c(c1)OCO2	-10.2%	-18.1	7.4%	.	27.4	-19.9%	3.0
CC(C)(C)SCCNC(=O)c1ccc(NS(C)(=O)=O)cc1	-2.1%	-0.7	8.1%	-6.6%	6.6	-7.3%	-0.1
COc1ccc(-c2cc(-c3n[nH]c(=S)n3-c3cccc4ccccc34)[nH]n2)cc1	-16.9%	-10.3	1.2%	.	4.1	4.2%[15.4 µM]	-0.4
COc1cc(SC)ccc1C(=O)NCc1ccccc1	-13.2%	2.0	2.5%	-3.4%	-20.9	2.4%	1.7
Cc1ccc(NC(=O)C2CC(=O)N(CCc3ccccc3)C2)cc1Cl (centres undefined)	2.2%	4.6	.	1.7%	-16.2	14.4%	.
Cc1ccc(/C=C/C2=NN(Cc3ccccc3)C(=O)CC2)cc1	-2.4%	0.1	?	-6.6%	-2.7	-7.0%	-3.4
Cc1ccccc1C(=O)Oc1ccc2ccc(O)cc2c1	-1.7%	5.7	10.0%	-1.9%	2.9	0.4%	0.7
COc1ccccc1C(=O)NC(=O)COC(=O)c1cnccn1	.	2.8	.	-2.2%	.	-31.0%	.

Remaining list, next part.
SMILES	gsp antag	CtBP-E1A blk	Sfp inh	ClpP mod	TRPV1 PAM	gsp agonist	Menin MLL FP FL
COC(=O)c1ccccc1NC(=O)CS(=O)(=O)Cc1nc(-c2ccc(C)cc2)oc1C	-5.9%	0.3	-12.7%	-6.3%	.	-77.3%[inhibitor]	1.4
Cc1ccc(NC(=O)c2ccc3c(c2)C(=O)N(c2cc(C)ccc2C)C3=O)nc1	8.3%	-2.2	4.6%	1.0%	-0.7	34.0%	-0.5
CC1(C)NC(=O)N(CC(=O)Nc2cc(S(=O)(=O)N3CCOCC3)ccc2N2CCOCC2)C1=O	.	.	15.5%	.	9.5	.	2.3
Cc1ccc(NC(=S)NC2CCSc3ccccc32)cc1C (centres undefined)	-5.8%	-24.9	8.8%	-2.9%	-8.3	18.0%	.
CN1/C(=C\C=N\NC(=O)c2cccnc2)C(C)(C)c2ccccc21	13.6%	-6.2	1.0%	2.7%	2.3	-10.5%	3.4
COc1ccc(CCn2c(=O)[nH]c3cc(C(=O)NCCc4ccccc4)ccc3c2=O)cc1OC	.	.	5.5%	.	12.0	.	1.0
Cn1cc(S(=O)(=O)NCc2ccc(F)cc2)c(=O)n(C)c1=O	9.1%	-23.1	17.5%	0.7%	13.2	-20.2%	.
Cc1c(OC(C)C(=O)NCCN2CCOCC2)ccc2c3c(c(=O)oc12)CCC3 (centres undefined)	0.7%	.	9.1%	4.1%	-0.4	5.0%	4.1
O=C(NCCc1ccccn1)c1ccc(OC2CCN(Cc3ccccn3)CC2)cc1	1.2%	-3.4	6.9%	-1.1%	6.5	?	.
COc1cc(NS(=O)(=O)c2ccc(Nc3nc(-c4ccccc4)cs3)cc2)nc(OC)n1	?	1.7	-6.7%	1.2%	?	-4.5%[15.4 µM]	1.8

More results follow:
SMILES	gsp antag	CtBP-E1A blk	Sfp inh	ClpP mod	TRPV1 PAM	gsp agonist	Menin MLL FP FL
C=CCNC(=O)CCc1nnc(C2(c3ccc(Cl)cc3)CCC2)o1	61.4%[activator]	.	7.4%	-0.5%	6.2	-18.8%	0.8
C[C@@H](NC(=O)C(=O)c1c[nH]c2ccccc12)c1ccccc1	-7.6%	-1.8	.	1.9%	.	.	.
CCN(CC)c1ccc(C(=O)N/N=C(\C)c2ccc(O)cc2)cc1	-1.0%	5.3	-5.9%	-3.2%	-10.9	0.0%	4.7
Cc1ccc(-n2nc(C)c3c2C(Br)C(C)(C)CC3=O)nc1 (centres undefined)	-1.4%	-24.7	.	-3.4%	.	.	.
Cc1cnc(NC(=O)c2cc(-c3ccccc3)nn2-c2ccccc2)s1	7.0%	4.9	.	-2.2%	.	?	.
COc1ccc2nc3oc(C(=O)N4CCN(c5cccc(C(F)(F)F)c5)CC4)cc3cc2c1	-7.7%	-0.3	?	26.9%	6.8	?	0.6

Assay outcomes from PubChem BioAssay.
